Bioassay records: PubChem BioAssay, National Center for Advancing Translational Sciences (NCATS)
miR-21 FLuc: miR-21 reporter, rising signal | HeLa miR-21 FLuc reporter, luciferase, 48 h | Potency, µM (series often up to 38.3 µM), without a hit: at the top dose reporter change, positive = more light | 340,000 tested, under 10 active | AID 2288; active = well fitted rising curve with a large enough effect; inconclusive = small, poorly fitted or top-dose-only effect; inactive = no such curve, though single readings can be large or run the other way;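 also: % of control where 0% means no effect; miR-21 action dims this reporter so a rising signal means less miR-21 action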
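HeLa miR-21-FLuc reporter line, endogenous miR-21; 2000 cells/well in DMEM/10% FBS; compound titration up to ~40uM final, 48 h, 37 degree Celsius; luciferase detection reagent, 15 min lysis, CCD luminescence.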
* hit, by the source's call; ? = inconclusive. A portion of the library, so the mix of outcomes need not match the whole.

SMILES	miR-21 FLuc
CC(C)CCOc1ccc(C(=O)NCC2OCCc3ccccc32)cc1 (stereo not drawn)	2%
O=C(CSCc1ccccc1Cl)N1CCN(c2ccc(F)cc2)CC1	-16%
CCOC(=O)CSc1nc2ccc(NC(=O)c3ccc(Cl)cc3)cc2s1	-20%
Cc1ccccc1NC(=O)CSc1nc2c(oc3ccccc32)c(=O)n1Cc1ccco1	0%
COc1ccc(N(C(=O)c2cccc(C)c2)S(=O)(=O)c2ccc3c(c2)n(C)c(=O)n3C)cc1	-2%
CCc1cccc(NC(=O)c2cc3c(=O)oc4ccc(C)cc4c3s2)c1	-2%
CCOC(=O)c1c(C)oc2ncnc(Nc3ccc(OC)c(OC)c3)c12	-9%
Cc1nc(-c2ccc(C)c(N3CCN(C(=O)Nc4cccc(Cl)c4C)CC3)c2)no1	14%
COC(=O)c1ccccc1NC(=O)Cn1c(=O)n(-c2ccc(Cl)cc2)c(=O)c2c(C)c(C)sc21	4%
Cc1ccc(NC(=O)NCc2ccc3c(c2)CCN3C(=O)c2ccccc2)c(Cl)c1	13%
COc1ccc(C2=NN(CC(=O)NCCc3ccc(OC)c(OC)c3)C(=O)CC2)cc1	-6%
CC(=O)Nc1nonc1-c1nnc(SCC(=O)Nc2ccc(C)cc2)n1-c1ccccc1	-1%
CCCN(C(=O)c1coc(=O)c2ccccc12)c1ccccc1C	?
CCc1ccc(NC(=O)Cn2c(=O)n(Cc3ccccc3)c(=O)c3oc4ccccc4c32)cc1	-1%
Cc1ccccc1CNC(=O)Nc1ccc2c(c1)N(C)C(=O)c1ccccc1S2	-3%
Cc1nnc2c(N3CCN(c4ccc(F)cc4)CC3)nc3ccc(C(=O)c4ccccc4)cc3n12	-4%
COc1cc(C2CC(=O)c3c([nH]c(C(=O)OC4CCCC4)c3C)C2)cc(OC)c1OC (stereo not drawn)	?
Cc1ccc(C)c(N2CCN(CCCNC(=O)c3ccc4nc(C(C)C)oc4c3)CC2)c1	13%
Cc1cc(SCC(=O)NCc2ccccc2)nc(=O)[nH]1	1%
CCCC(=O)N(c1ccc2oc(C)c(C(C)=O)c2c1)S(=O)(=O)c1ccc(C)cc1	18%
O=C(CCSCc1ccccc1F)N1CCN(c2ccc(F)cc2)CC1	0%
O=C(COc1ccc(Cl)cc1)Nc1ccccc1OCc1cc(=O)n2ccccc2n1	0%
Cc1ccc(S(=O)(=O)C(CNC(=O)c2c(F)cccc2F)c2ccco2)cc1 (stereo not drawn)	-12%
CN1C(=O)C2(c3ccccc31)N(c1ccc(F)c(Cl)c1)C(=O)CS2(=O)=O (stereo not drawn)	-3%
CCOC(=O)Cc1c(C)nc2c(-c3ccc(OC)c(OC)c3)c(C)nn2c1C	-5%

Some of the entries above in another layout.
| smiles | miR-21 FLuc |
| --- | --- |
| CCc1ccc(NC(=O)Cn2c(=O)n(Cc3ccccc3)c(=O)c3oc4ccccc4c32)cc1 | -1% |
| CCOC(=O)c1c(C)oc2ncnc(Nc3ccc(OC)c(OC)c3)c12 | -9% |
| Cc1cc(SCC(=O)NCc2ccccc2)nc(=O)[nH]1 | 1% |
| COc1cc(C2CC(=O)c3c([nH]c(C(=O)OC4CCCC4)c3C)C2)cc(OC)c1OC (stereo not drawn) | ? |

An excerpt from above in order of length of the SMILES, largest number first:
SMILES	miR-21 FLuc
Cc1nnc2c(N3CCN(c4ccc(F)cc4)CC3)nc3ccc(C(=O)c4ccccc4)cc3n12	-4%
Cc1nc(-c2ccc(C)c(N3CCN(C(=O)Nc4cccc(Cl)c4C)CC3)c2)no1	14%
Cc1ccc(NC(=O)NCc2ccc3c(c2)CCN3C(=O)c2ccccc2)c(Cl)c1	13%

The list continues.
SMILES	miR-21 FLuc
CC(C)CCNC(=O)CCCN1C(=O)c2ccccc2Sc2ncccc21	-4%
CCc1ccc2oc(C(=O)Nc3ccccc3C(=O)OC)cc(=O)c2c1	-2%
Cc1cc(C)cc(OCC(=O)NCC(c2ccc(Cl)cc2)N2CCCCC2)c1 (stereo not drawn)	24%
Cc1ccccc1OCCSc1nnc(-c2cccs2)o1	-7%
COc1cccc(-n2ccnc2SCC(=O)Nc2ccc(Cl)c(Cl)c2)c1	-2%
COc1cccc(NC(=O)Cn2c(=O)n(-c3ccccc3)c(=O)c3c2c2cc(OC)ccc2n3C)c1	4%
COc1ccc2c(c1)NC(c1ccc(Cl)cc1)=NC(c1cccs1)=N2	5%
CSc1ccc(-c2nc3ncccn3c2Nc2ccc(C)c(C)c2)cc1	-1%
CC1CCc2c(sc(NC(=O)c3cc(-c4ccc(F)cc4)on3)c2C(N)=O)C1 (stereo not drawn)	-5%
COc1cccc(-n2c(SCC(N)=O)nc3c(oc4ccccc43)c2=O)c1	2%
COc1cc(NC(=O)CC2C(=O)N(c3cccc(C)c3)C(=O)N2Cc2cccs2)cc(OC)c1 (stereo not drawn)	21%
CCOc1ccc(CNC(=O)c2ccc3c(c2)c(C)c(C)n3Cc2ccc(Cl)cc2)cc1	9%
Cc1ccc(-n2ncc3c(NCCCn4ccnc4)ncnc32)cc1	-45%
Cc1cccc(C)c1OCC(=O)NCC1(N(C)C)CCCCC1	0%
CCOc1ccccc1NC(=O)N1CC(C)Oc2ccc(Cl)cc21 (stereo not drawn)	-7%
CCCOc1ccc(C2c3c(oc4ccccc4c3=O)C(=O)N2c2nnc(C(C)C)s2)cc1 (stereo not drawn)	-4%
COCCCn1c(=O)c2sccc2n2c(CCCC(=O)NC3CCC(C)CC3)nnc12 (stereo not drawn)	7%
CCS(=O)(=O)c1ccccc1C(=O)Nc1ccc(-c2nc3ccccc3s2)cc1	2%
CN(C(=O)CSc1nc2ccc(NC(=O)c3cccs3)cc2s1)c1ccccc1	?
CCOc1ccc(C(=O)NCCc2sc(-c3ccc(OC)c(OC)c3)nc2C)cc1	-23%
CCOC(=O)c1c(NC(=O)/C=C/c2ccc(OCC)cc2)sc(C)c1C	-1%
Cc1oc(-c2ccc(Cl)cc2)nc1CSc1nnc(C)n2c1cc1sccc12	0%
COc1ccc(NC(=O)c2c(NCc3ccc(N(C)C)cc3)sc3c2CCC3)cc1	4%
CN1C(=O)c2ccccc2Sc2ccc(NC(=O)c3ccc(C#N)cc3)cc21	?
Cc1ccc(CNC(=O)CN2C(=O)C3CCCCN3c3ccc(C(=O)N4CCCC4)cc32)cc1 (stereo not drawn)	-3%

(cont.)
SMILES	miR-21 FLuc
CCNC(=O)C1CCN(Cc2cc3ccccc3n2Cc2ccc(C)cc2)CC1	23%
CC(C)C1N=C2c3ccccc3N=C(SCC(=O)NCc3ccc(Cl)cc3)N2C1=O (stereo not drawn)	0%
CCOC(=O)c1cccc(NC(=O)C2COc3ccc(OC)cc3C2)c1 (stereo not drawn)	-2%
O=C(CSc1nc2c([nH]c3ccccc32)c(=O)n1-c1ccc(F)cc1)N1CCCCC1	-7%
COc1ccc(-c2ccc(NS(=O)(=O)c3cccc(Cl)c3)cc2)nn1	-1%
COc1ccccc1-c1nn2c(=O)cc(CN3CCN(S(=O)(=O)c4ccc(C)cc4)CC3)nc2s1	-1%
CN(C(=O)c1c2c(nc3ccccc13)C(=O)N(C1CCCCC1)C2)c1ccc(F)cc1	-6%
Cc1ccc(-c2cn3nc(N4CCC(C(=O)Nc5ccccc5C)CC4)sc3n2)cc1	-25%
Cc1ccc(Cl)cc1NC(=O)c1oc2ccc(S(=O)(=O)N3CCCCCC3)cc2c1C	-2%
Cc1ccc(Nc2nc3c(S(=O)(=O)c4ccccc4)nnn3c3ccc(Cl)cc23)c(C)c1	-6%
Cc1ccc(C)c(Cn2c(=O)n(CCCC(=O)NCc3ccc4c(c3)OCO4)c(=O)c3sccc32)c1	23%
CCCCNC(=O)C1CCN(c2nc3ccc(C)cc3[nH]2)CC1	-17%
CCCOc1cccc(C2c3c(oc4cc(C)c(C)cc4c3=O)C(=O)N2CCCN2CCOCC2)c1 (stereo not drawn)	15%
COc1cc(OC)c(N(C)C(=O)c2c(C)oc3ncn(CC(C)C)c(=O)c23)cc1Cl	-12%
CC1CCC(Nc2nc3c(-c4cccc(C(F)(F)F)c4)nnn3c3ccccc23)CC1 (stereo not drawn)	0%
CC1=C(C(=O)Nc2ccccc2)C(c2ccc(C)cc2)n2nc(SCc3ccccc3C)nc2N1 (stereo not drawn)	-1%
Cn1nccc1C(=O)NCc1ccc2c(c1)CCN2C(=O)c1ccc(F)cc1	29%
COc1cc2nc(SCC(=O)Nc3ccc(F)cc3)n3nc(CCn4c(C)nc5ccccc54)nc3c2cc1OC	-4%
CC1CCCN(Cc2c(O)ccc3c(=O)c(-c4ccccc4Cl)c(C(F)(F)F)oc23)C1 (stereo not drawn)	0%
CC1CCCN(S(=O)(=O)c2cc3c(cc2Cl)NC(=O)CO3)C1 (stereo not drawn)	-6%
CCOC(=O)CSc1nnc2n(-c3ccccc3)c(=O)c3c4c(sc3n12)CC(C(C)(C)C)CC4 (stereo not drawn)	-9%
CC(C)(C)OC(=O)N1CCC(c2c(C(=O)Nc3ccc4c(c3)OCO4)cnn2-c2ccccc2)CC1	2%
Cc1ccc(C)c(N2CCN(Cc3nnc(-c4ccc5c(c4)OCO5)o3)CC2)c1	-8%
Cc1ccc2occ(CC(=O)N3CCN(c4cccc(Cl)c4)CC3)c2c1	8%
CCCCOc1ccc(C(=O)NCc2nnnn2-c2ccc(C)c(C)c2)cc1	0%

(listing goes on)
SMILES	miR-21 FLuc
O=C(NC1CCCCC1)c1ccc(CSc2nc3ccncc3n2Cc2ccc(F)cc2)cc1	10%
COc1ccc(CCNC(=O)c2cccc(-n3cnc4cccnc43)c2C)cc1OC	23%
CCc1ccccc1NC(=O)C(NS(=O)(=O)c1ccc2c(c1)CCC(=O)N2)c1ccccc1 (stereo not drawn)	5%
O=C(COc1ccccc1F)Nc1ccccc1OCc1cc(=O)n2ccccc2n1	2%
Cc1cc(C)c2c(n1)nn1c(C)c(CCC(=O)NCc3ccccc3Cl)c(C)nc21	0%
Cc1cccc(-n2c3nc(=O)n(C)c(=O)c-3cc3ccc(Cl)cc32)c1C	-5%
Cc1ccc(C)c(NC(=O)CSc2nc3c([nH]c4ccccc43)c(=O)n2-c2ccc(F)cc2)c1	0%
CCOc1ccc(CNC(=O)CN2C(=O)C3CCCCN3c3ccc(C(=O)N4CCCC4)cc32)cc1 (stereo not drawn)	19%
CC(C)NC(=O)Cn1ccc2cc(S(=O)(=O)N3CCCCCC3)ccc21	8%
COCc1cc(C)nc2sc3c(c12)NC(c1ccc(O)c(OC)c1)N(c1ccccc1)C3=O (stereo not drawn)	-20%
COc1ccc2c(c1)c1c(c(=O)n(-c3ccc(OC)c(OC)c3)c(=O)n1Cc1ccc(C)cc1)n2C	0%
CCOc1ccccc1NC(=O)N1CCN(Cc2nc3ccc(C)cc3o2)CC1	3%
CCn1c(=O)c2sccc2n2c(CCC(=O)Nc3ccc(OC)c(Cl)c3)nnc12	-6%
Cc1ccccc1/C=C(\C#N)c1nc(-c2ccc(Cl)cc2)cs1	-14%
CC(=O)c1ccc(N2CCN(C(=O)c3ccc(Cn4c(=O)[nH]c5ccccc5c4=O)cc3)CC2)cc1	?
CCCOc1ccc(-c2cccc(NS(=O)(=O)c3ccccc3)c2)nn1	0%
CCN1CCc2c(sc(NC(=O)c3ccc(S(=O)(=O)N(C)C4CCCCC4)cc3)c2C(N)=O)C1	6%
O=C(C1CCN(c2nc3ccccc3[nH]2)CC1)N1CCN(c2cccc(Cl)c2)CC1	?
O=C1CC(c2ccccc2)Cc2[nH]c(=O)c(C(=O)Nc3ccc(F)cc3)cc21 (stereo not drawn)	-3%
CC(CCc1ccccc1)NC(=O)Cn1ncc2c3ccccc3n(Cc3ccccc3F)c2c1=O (stereo not drawn)	-1%
CCOc1ccc(C(=O)NCCc2sc(-c3cccc(F)c3)nc2C)cc1OCC	0%
Cc1cc(NC(=O)N2CC=C(c3c[nH]c4ccccc34)CC2)ccc1Br	5%
CC(C)OCCCNC(=O)CN1C(=O)COc2ccc(S(=O)(=O)N3CCOCC3)cc21	-2%
CC(NC(=O)Nc1ccccc1C(F)(F)F)c1c(-n2cccc2)sc2c1CCCC2 (stereo not drawn)	20%
Cc1ccc(-n2ncc(C(=O)N3CCN(c4ncccn4)CC3)c2C2CCN(C(=O)OC(C)(C)C)CC2)cc1	2%

Additional results follow.
SMILES	miR-21 FLuc
COc1ccc(-c2onc(C)c2C)cc1S(=O)(=O)NC1CCCCC1	0%
Cc1ccc(C)c(NC(=O)Cc2coc3cc(C)cc(C)c23)c1	0%
CC(=O)N1CCc2cc(S(=O)(=O)CCC(=O)N3CCN(c4cccc(C)c4C)CC3)ccc21	3%
O=C(COc1ccccc1F)Nc1ccccc1C(=O)OCc1cc(=O)n2nc(C3CC3)sc2n1	-4%
Cc1c(NC(=O)c2sc3c([N+](=O)[O-])cccc3c2Cl)cccc1-c1nc2ccccc2o1	0%
COc1cc(OC)c(NS(=O)(=O)c2cc(-c3cnc(C4CC4)o3)ccc2C)cc1Cl	17%
CCC(=O)N1CCc2cc(CNS(=O)(=O)c3ccccc3F)ccc21	-60%

Of the compounds above, 3 have a CF3 group:
SMILES	miR-21 FLuc
CC1CCC(Nc2nc3c(-c4cccc(C(F)(F)F)c4)nnn3c3ccccc23)CC1 (stereo not drawn)	0%
CC1CCCN(Cc2c(O)ccc3c(=O)c(-c4ccccc4Cl)c(C(F)(F)F)oc23)C1 (stereo not drawn)	0%
CC(NC(=O)Nc1ccccc1C(F)(F)F)c1c(-n2cccc2)sc2c1CCCC2 (stereo not drawn)	20%
